MLL AF4-AF9 inh: inhibitors of human MLL-AF4/AF9 interaction; P42568; 0.47% of 350,000 active; AlphaScreen, biotin-AF4 peptide binding to FLAG-AF9; AID 651704; inhibition, % at 10 µM;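 active = every replicate reaching a set inhibition limit, whatever the replicate mean, cut at about 25% in these data; inconclusive = mean inhibition reaches that limit but some replicates miss it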;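 also: 0% = plate neutral control median and 100% = total signal loss; the record names both 10 and 1 µM as test concentration; the first replicate is given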
Target sequence (P42568 whole entry, looked up): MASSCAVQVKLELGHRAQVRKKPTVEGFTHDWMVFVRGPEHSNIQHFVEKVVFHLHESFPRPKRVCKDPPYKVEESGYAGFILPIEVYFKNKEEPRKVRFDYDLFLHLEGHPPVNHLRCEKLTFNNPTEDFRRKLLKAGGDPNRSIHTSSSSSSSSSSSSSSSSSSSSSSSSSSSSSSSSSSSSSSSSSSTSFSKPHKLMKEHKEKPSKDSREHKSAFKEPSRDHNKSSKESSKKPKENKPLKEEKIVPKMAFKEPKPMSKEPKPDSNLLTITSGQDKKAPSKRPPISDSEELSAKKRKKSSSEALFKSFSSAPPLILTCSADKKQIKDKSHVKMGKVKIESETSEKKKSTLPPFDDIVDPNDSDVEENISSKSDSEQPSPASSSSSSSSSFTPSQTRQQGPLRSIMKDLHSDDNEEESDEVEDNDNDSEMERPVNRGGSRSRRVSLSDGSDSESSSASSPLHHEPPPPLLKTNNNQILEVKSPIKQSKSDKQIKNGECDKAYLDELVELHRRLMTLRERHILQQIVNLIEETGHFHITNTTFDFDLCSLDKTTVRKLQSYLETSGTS
Vif A3G: HIV-1 Vif–A3G interaction blockers – biochemical, TR-FRET, GST-Vif 1-94, biotin-A3G peptide, dose response retest, primary screen (AID 1117319). 0.57% of 260,000 active. TR-FRET GST-Vif / biotin-A3G peptide binding; higher % means a stronger effect; test concentration not given here; strong numbers were not always called active. inhibition, %; hits with a dose series show IC50 in µM;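 active = above the screen mean plus three standard deviations and confirmed in dose response; inconclusive = results disagree or hit not tested in dose response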;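 also: Vif residues 1-94 fused to GST binding biotinylated APOBEC3G peptide 110-148; 0% = full assay without inhibitor and 100% = GST in place of GST-Vif; retest series ran down from 100 µM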
RanGTP-Impb inh: disruptors of Ran-importin-beta complex formation – biochemical, FRET, CFP-Ran, YFP-importin-beta, homogeneous, primary screen | cell-free CFP-Ran/YFP-importin-beta FRET ratio | AID 2216 | 1.1% of 300,000 active | inhibition, % (no concentration beside the values);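 active = most replicates above 15%; inconclusive = exactly half above 15%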;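 also: 0% = DMSO wells and 100% = Ran loaded with GDP instead of GTP; wells of about 40 µL received 100 nL stock; the first replicate is given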
T cruzi repl: blocks replication of Trypanosoma cruzi; AID 1885; inhibition, % (concentration not given with the values); 1.4% of 300,000 active; T. cruzi beta-gal in NIH3T3, luminescence, 90 h;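 active = mean inhibition across valid replicates above about 55%, limit read from the data; inconclusive = mean below that limit but half or more replicates reach it; inactive = mean below it, under half of replicates reach it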;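 also: signal also drops with host cell toxicity which is not excluded here; 0% = plate median of DMSO wells and 100% = zero luminescence signal; higher percent means less beta-gal luminescence so fewer parasites; stock transfer was 50 nL into about 50 µL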
A1 inh: inhibitors of the anti-apoptotic protein A1, read as caspase activation; MEF A1-2A-BIM cells, Caspase-Glo 3/7 luminescence, 3 h; percent of clofoctol response, vehicle zero; 0.066% of 330,000 active; caspase activation, % (test concentration not listed);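 active = over half of replicate activation scores above 10%, or exactly half above 10 with the replicate mean above 10; inconclusive = replicate mean below 10 yet half the replicates above 10; inactive = over half of replicates below 10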;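 also: wells of about 30 µL received 50 nL stock; many hits fall short of the cut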
rRNA inh HTS: selective bacterial rRNA inhibition in E. coli; E. coli WT GFP vs humanized-ribosome RFP mutants, fluorescence, 24 h; active compounds read low; DMSO median 0, no signal -100; GFP signal change (wild-type ribosome), % (concentration not given with the values); 1.6% of 350,000 active;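 active = significant combined selectivity score with lowered wild-type GFP, culture density cut under 30%, mutant RFP and density less affected; inactive = any of these conditions unmet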; also: one replicate is shown; some compounds called inactive have numbers as strong as hits
Calb FLC: C. albicans growth modulation with fluconazole; 0.57% of 300,000 active; AID 1979; C. albicans CaCi-2 (fluconazole-resistant clinical isolate) + fluconazole, Alamar Blue growth, 48 h; growth inhibition, % (no concentration beside the values);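 active = most replicates above 75%; inconclusive = exactly half above 75%; inactive = most below 75%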;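 also: all wells also contain fluconazole at 8 µg/ml as a sub-toxic cotreatment; 0% = median of DMSO wells and 100% = median of geldanamycin control wells; wells of about 8 µL received 7.5 nL stock; the first replicate is given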
Beta cell apopt: beta cell apoptosis inhibition | protection from apoptosis, % (no concentration beside the values) | AID 435005 | 0.8% of 300,000 active | INS-1E cytokine-induced death, ATP luminescence, 48 h; percent of positive-control rescue, neutral wells zero;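 active = all replicates at 75% or more, or half of them and the mean; inconclusive = half reach 75% but not the mean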;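 also: 0% = cytokine-treated negative control wells and 100% = positive control rescue; higher means more ATP so stronger rescue from cytokine killing; wells of about 40 µL received 100 nL stock; the first replicate is given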
rRNA inh HTS OD600: also measured in rRNA inh HTS; calls as there; OD600 change, %; measured here: OD600 growth;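 optical density of the mix in the first replicate; 0 = DMSO median and -100 = no signal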
rRNA inh HTS RFP: second read-out of rRNA inh HTS, no call of its own (marks repeat the call); RFP signal change, %; measured here: RFP humanized mutant strains;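 first replicate; 0 = DMSO median and -100 = no signal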
Numbers without * were called inactive; ? = inconclusive; . = no result given. Only part of the results is shown, so the mix of outcomes need not match the whole.

SMILES	MLL AF4-AF9 inh	Vif A3G	RanGTP-Impb inh	T cruzi repl	A1 inh	rRNA inh HTS	rRNA inh HTS OD600	rRNA inh HTS RFP	Calb FLC	Beta cell apopt
O=C(O)c1ccc(COCC(F)(F)F)cc1	.	-3%	1.4	-47	0.1	.	.	.	15	-2
Oc1ccc(Cl)cc1Nc1nc(NCC2CCCO2)c2ccccc2n1 (centres undefined)	.	.	0.9	-11	-0.4	-30	-55	-8.5	6	13
O=C(COC(=O)Cc1ccc(Br)cc1)NC1CCCCC1	-1.3	9%	0.8	-3	-0.1	-3	-7	-4.1	14	-4
CC(C)CNC(=O)C1Nc2ccccc2C2C=CCC12 (centres undefined)	6.4	.	1.8	-4	0.5	5	-1	3.3	9	-1
NC(=O)c1nc(C(=O)N2CCN(c3ccccc3)CC2)c2ccccc2n1	-1.6	.	.	.	0.5	0	0	3.2	.	-7
O=C(OCC#CCSc1nc2ccccc2o1)c1cc2ccccc2o1	.	12%	1.4	-19	-1.1	.	.	.	1	3
O=C(COc1ccccc1)N(Cc1cc2ccccc2[nH]c1=O)CC1CCCO1 (centres undefined)	.	-2%	-2.6	5	-0.2	.	.	.	-14	1
Cc1cccn2cc(-c3cccc(S(=O)(=O)N4CCOCC4)c3)nc12	-4.5	1%	1.4	0	0.0	-2	0	1.2	1	-4
CC(=O)NC(NC(C)=O)c1cccc(OCc2ccccc2)c1	-157	1%	11	-18	-0.1	6	-5	0.0	0	.
COc1ccc(CC(=O)NCC(=O)NC(Cc2ccccc2)C(=O)O)cc1 (centres undefined)	-9.2	.	-2.8	-13	0.7	6	11	-0.6	9	.
CC1(C)OC(=O)N(Cc2ccco2)C1(C)O (centres undefined)	.	2%	-0.3	-10	0.1	.	.	.	-1	-3
CCN1CCCC1CNc1ncnc2c1[nH]c1ccc(Cl)cc12 (centres undefined)	.	4%	2.2	32	0.3	.	.	.	-6	-4
COc1cc(C(=O)N2CCN(C3CCC(C)CC3)CC2)cc(OC)c1OC (centres undefined)	2.0	.	2.8	26	0.2	10	7	0.0	-2	-4
COC(=O)c1ccc(NS(=O)(=O)c2ccc(Cl)cc2)o1	-9.3	29%	-0.9	0	0.4	13	3	-0.9	-2	-1
COCCCNC(=O)c1ccc(Cn2c(=O)c3ccccc3n(CC(=O)NCc3ccco3)c2=O)cc1	-4.3	-9%	-7.2	2	1.1	9	7	-2.5	0	-3
COC(=O)c1c(C(=O)OC)c2n(c1C)CCC2	.	3%	2.3	1	-0.5	7	13	2.1	2	-2
COc1cc(C2CC(=O)C=C(O)C2)cc(OC)c1OC (centres undefined)	.	2%	2.0	-22	1.0	.	.	.	14	-4
CN1CCN(c2ccc(-c3ccnn3C(=O)Nc3ccccc3)cc2)CC1	0.8	-16%	-0.1	37	-1.7	13	14	1.5	-4	7
COCCn1nnnc1CN1CCN2CCCC2C1 (centres undefined)	-12	3%	-3.3	-15	0.9	10	4	5.2	3	-1
O=c1c2ccccc2nc(/C=C/c2cc(Br)ccc2O)n1CCO	2.2	.	-7.3	-15	0.3	-30	-33	5.2	-2	-7

Three structures from above, arranged by length of the SMILES, descending:
SMILES	MLL AF4-AF9 inh	Vif A3G	RanGTP-Impb inh	T cruzi repl	A1 inh	rRNA inh HTS	rRNA inh HTS OD600	rRNA inh HTS RFP	Calb FLC	Beta cell apopt
Oc1ccc(Cl)cc1Nc1nc(NCC2CCCO2)c2ccccc2n1 (centres undefined)	.	.	0.9	-11	-0.4	-30	-55	-8.5	6	13
CC(C)CNC(=O)C1Nc2ccccc2C2C=CCC12 (centres undefined)	6.4	.	1.8	-4	0.5	5	-1	3.3	9	-1
COC(=O)c1c(C(=O)OC)c2n(c1C)CCC2	.	3%	2.3	1	-0.5	7	13	2.1	2	-2

More records.
SMILES	MLL AF4-AF9 inh	Vif A3G	RanGTP-Impb inh	T cruzi repl	A1 inh	rRNA inh HTS	rRNA inh HTS OD600	rRNA inh HTS RFP	Calb FLC	Beta cell apopt
CCOc1ccccc1OCCN1CCCC1	1.5	.	-4.1	-9	0.3	12	9	1.0	3	.
CNC(=O)COc1ccccc1C(=O)Nc1ccc2c(c1)oc1ccccc12	.	-26%	?	24	-0.9	.	.	.	26	7
Cc1ccc(S(=O)(=O)C/N=C(/NC(=S)N(c2ccccc2)c2ccccc2)c2ccccc2)cc1	-64	9%	-2.7	10	-0.2	20	5	0.7	8	-3
COc1cccc(NC(=O)/C=C/c2ccc(S(=O)(=O)N3CCOCC3)cc2)c1	3.6	7%	.	.	-0.2	.	.	.	.	0
Cc1ccccc1-n1cc(-c2ccc(Br)cc2)nc1SCC(N)=O	20	.	-3.9	17	-0.4	-41*	-48*	-7.6*	33	1
CN(C(=O)COC(=O)c1ccccc1C(=O)N1CCN(c2ccccc2)CC1)c1ccccc1	0.2	-4%	9.9	-1	-0.1	-1	-5	1.3	-14	0
O=c1[nH]c(CN2CCN(c3ccccn3)CC2)nc2c(Br)cc(Br)cc12	1.6	10%	-1.7	-9	0.5	3	-6	-4.9	14	-12
O=C(Nc1ccc(Cl)cc1)N1CCC(c2nc(-c3ccccc3Cl)no2)CC1	.	4%	1.1	0	1.4	.	.	.	6	8
Cc1ccc2nc(C)cc(NCCO)c2c1	.	-1%	-1.8	10	1.6	.	.	.	3	.
COc1cccc(C(C)NC(=O)Nc2cc(Cl)ccc2OC)c1 (centres undefined)	-0.4	4%	-2.3	.	0.9	8	-2	-4.2	-15	-8
COc1ccc(NC(=S)N(CCN(C)C)C(C)c2ccco2)cc1Cl (centres undefined)	4.5	.	-0.2	-1	0.7	.	.	.	1	-13
COCCN(C(=O)CCC(=O)Nc1cc(C)on1)C(C(=O)NC1CCCC1)c1ccc(C(C)C)cc1 (centres undefined)	1.7	-2%	-1.9	6	0.4	2	10	0.0	37	-1
CCOc1ccc(CN(C)C(=O)[C@H](Cc2ccccc2)NC(=O)OCc2ccccc2)cc1OC	0.6	-5%	0.2	8	0.7	-17	-21	-3.4	7	7
Nn1c(SCC(=O)Nc2cccc(C(F)(F)F)c2)nncc1=O	-3.0	2%	9.4	-53	-0.5	11	5	2.0	-3	-14
Cc1ccc(Cl)cc1N1CCN(C(=O)C2CCCN(S(=O)(=O)c3cnc[nH]3)C2)CC1 (centres undefined)	0.0	0%	1.8	-2	-2.2	-6	-19	2.0	2	-4
COc1cccc(CNC(=S)Nc2ccc(Cl)cc2C)c1	-1.5	.	0.8	7	0.0	-31	-29	-4.7	-13	1
COCCCNC(=O)Cn1ncc2ccsc2c1=O	-7.1	-2%	2.0	-6	0.0	9	5	-0.4	0	-4
Cc1sc(NC(=S)NC(=O)c2ccco2)c(C(N)=O)c1C	-2.1	-3%	-4.4	-6	-1.6	3	5	4.9	-6	-3
O=C(O)Cc1csc(-c2ccccc2)n1	-0.8	-4%	-3.4	-13	0.1	15	10	-0.6	-3	.
CCOc1ccc(-n2nnc3c(=O)n(CC(=O)NCc4ccco4)cnc32)cc1	-4.3	24%	-2.0	4	0.3	7	9	2.2	-7	-2
CCS(=O)(=O)N1Cc2ccccc2CC1C(=O)Nc1ncc(C)s1 (centres undefined)	-0.1	18%	2.6	-8	0.6	-1	-5	-0.3	5	-2
O=C(Nc1nc2nc(-c3ccccc3)cc(=O)n2[nH]1)c1ccccc1	.	?	-1.0	-5	-1.2	.	.	.	8	-4
C=CCn1c(-c2ccc(=O)n(Cc3ccccc3)c2)n[nH]c1=S	.	5%	7.4	-4	-0.4	.	.	.	-6	.
Cc1csc(NC(=O)c2cccs2)n1	.	-2%	4.0	7	1.6	.	.	.	-19	4
CC(=O)N1CCc2cc(S(=O)(=O)Nc3ccc(C)cc3)ccc21	-1.1	-6%	-1.3	-1	-1.0	8	13	-5.8	-2	9
O=C(Nc1cccc(S(=O)(=O)N2CCCCC2)c1)C1COc2ccccc2O1 (centres undefined)	0.1	.	.	.	-0.6	1	-11	8.7	.	-2
CC1CCCN(C(=O)Cn2nnc(-c3ccc(N(C)C)cc3)n2)C1 (centres undefined)	.	7%	-0.7	13	-0.4	.	.	.	3	-3
Cc1ccc(C)c2c3c([nH]c12)-c1nonc1CC3	.	?	4.8	12	-0.4	.	.	.	-5	-1
CCCCn1c(-c2ccc(Br)cc2F)nc2c1c(=O)[nH]c(=O)n2CC(C)C	6.9	.	0.0	?	1.2	-11	-38	8.9	-10	.
CCCN1CCN(CC(O)COC(c2ccc(OC)cc2)c2ccc(OC)cc2)CC1 (centres undefined)	-7.0	4%	6.4	-3	0.6	15	16	-0.1	-9	-4
O=C(NC(=S)NCc1ccco1)c1ccc([N+](=O)[O-])cc1	7.1	-2%	.	.	-0.8	-5.5*	0.8*	10*	.	8
CCOc1cccc2c1OC(c1cc(OC)c(OC)c(OC)c1)N1N=C(c3ccc(C)o3)CC21 (centres undefined)	.	.	5.9	4	-1.3	.	.	.	25	-2
CC1CN(c2ccccc2)c2nc3c(c(=O)[nH]c(=O)n3C)n2C1 (centres undefined)	-1.0	-9%	-2.3	-4	-0.4	13	33	4.6	22	1
O=C(CSc1nnnn1C1CC2C=CC1C2)Nc1ccc(C(=O)O)cc1 (centres undefined)	-1.7	3%	0.0	-10	1.0	-1	4	-0.7	-2	-1
Cc1ccc2c(c1)nnn2C1CCN(S(=O)(=O)c2ccc(C(=O)NC3CCCC3)cc2)CC1	.	0%	4.0	3	2.0	.	.	.	6	10
CSc1nc(N)nc(SCC(=O)c2ccccc2)c1C#N	.	-30%	-0.7	11	-0.7	.	.	.	-2	-2
Cc1ccc(NC(=O)CCn2nc(C)cc2C)c(C)c1	.	-10%	2.9	-3	-0.1	.	.	.	6	-2
COc1ccccc1CN(Cc1cc2cc3c(cc2[nH]c1=O)OCCO3)Cc1nnnn1Cc1ccco1	.	?	-28	-4	-0.2	.	.	.	-3	-10
CCOC(=O)c1cc(=O)n2[nH]c(-c3ccc(C)cc3)cc2n1	.	8%	-2.5	-11	0.6	.	.	.	-6	-3
O=C(CN1C(=O)C2C3c4ccccc4C(c4ccccc43)C2C1=O)Nc1ccccc1C(=O)O (centres undefined)	-4.2	10%	-4.4	-7	-0.3	-16	-14	1.3	-7	1
Cn1c(=O)c2[nH]c(COc3ccc(C(C)(C)C)cc3)nc2n(C)c1=O	.	5%	?	6	0.4	.	.	.	36	30
CC(C)(C)c1ccc(C(=O)CCC(=O)NCc2ccccc2)cc1	1.1	10%	.	.	-0.8	-28	-58	15	.	-4
Cc1cccc(C(=O)OCC(=O)NC(C)C2CC3CCC2C3)c1O (centres undefined)	-0.2	.	.	.	0.1	-4	-6	-1.9	.	-1
CC(=O)Nc1ccc(C(=O)NC(CC(=O)O)c2ccc(Cl)cc2)cc1 (centres undefined)	.	-1%	-1.1	-7	0.4	.	.	.	23	-3

Screening data: PubChem BioAssay, several laboratories
